GLA inh pH 4.5: alpha-galactosidase A (human) inhibition, pH 4.5; P06280; purified enzyme, 4-MU-alpha-Gal fluorescence, pH 4.5; activity change, negative = inhibition, % at 105 µM; 230,000 tested, under 10 active; AID 1467; inconclusive = small, poorly fitted or top-dose-only inhibition, or a rising curve; inactive = flat fitted curve, though single readings scatter; no compound was filed as active;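 note: 0% = full activity with enzyme and -100% = basal without enzyme; dose as in the result columns while the protocol names 77 µM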
miR-21 reporter: raises the signal of a miR-21 reporter. HeLa miR-21 FLuc reporter, luciferase, 48 h. Potency, µM (doses to about 38.3 µM), without a hit: at the top dose reporter change, positive = more light. 340,000 tested, under 10 active; active = well fitted rising curve with a large enough effect; inconclusive = small, poorly fitted or top-dose-only effect; inactive = no such curve, though single readings can be large or run the other way;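 note: % of control where 0% means no effect; miR-21 action dims this reporter so a rising signal means less miR-21 action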
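Using DMEM plus 10% FBS, HeLa miR-21-FLuc cells are incubated with test compounds (final up to about 40uM) for 48 hours; firefly luciferase signal is then imaged following reagent-mediated lysis.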
Rango-impB inh: inhibitors of Rango-importin beta complex formation; Rango CFP/YFP FRET sensor + importin beta, 45 min; AID 540263; Potency, µM (highest dose often 92.2 µM), for inactives: at the highest dose inhibition of complex formation; 0.031% of 340,000 active; active = rising FRET ratio curve, often small or poorly fitted; inconclusive = mostly compound fluorescence or quenching in the first reads; inactive = flat curves in all reads;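 note: potency is the fitted concentration of half-maximal effect; 0% = DMSO wells and 100% = buffer wells lacking importin beta; nearly all actives have a fitted effect of over 15% in size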
Target sequence (Q14974 whole entry, looked up): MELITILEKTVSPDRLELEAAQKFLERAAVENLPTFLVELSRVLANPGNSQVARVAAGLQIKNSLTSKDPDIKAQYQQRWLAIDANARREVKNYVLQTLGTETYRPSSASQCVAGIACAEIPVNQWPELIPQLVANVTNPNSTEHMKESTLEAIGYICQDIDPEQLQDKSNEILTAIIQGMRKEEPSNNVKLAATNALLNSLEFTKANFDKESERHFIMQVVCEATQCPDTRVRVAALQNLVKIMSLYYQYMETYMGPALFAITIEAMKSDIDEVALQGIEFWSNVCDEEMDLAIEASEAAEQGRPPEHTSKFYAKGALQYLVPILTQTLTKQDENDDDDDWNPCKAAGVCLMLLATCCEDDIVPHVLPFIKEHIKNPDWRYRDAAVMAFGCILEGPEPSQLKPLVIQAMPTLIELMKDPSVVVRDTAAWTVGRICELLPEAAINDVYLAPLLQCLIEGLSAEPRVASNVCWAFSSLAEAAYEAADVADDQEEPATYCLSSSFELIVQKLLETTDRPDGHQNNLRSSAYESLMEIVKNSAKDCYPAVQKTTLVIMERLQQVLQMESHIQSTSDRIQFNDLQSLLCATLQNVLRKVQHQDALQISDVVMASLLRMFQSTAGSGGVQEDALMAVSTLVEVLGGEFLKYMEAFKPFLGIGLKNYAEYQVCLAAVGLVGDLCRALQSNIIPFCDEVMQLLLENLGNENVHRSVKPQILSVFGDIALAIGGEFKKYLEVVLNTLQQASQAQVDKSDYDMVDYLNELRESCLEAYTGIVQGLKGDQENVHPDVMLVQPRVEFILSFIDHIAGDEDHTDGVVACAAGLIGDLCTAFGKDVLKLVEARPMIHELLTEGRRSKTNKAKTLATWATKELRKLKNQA
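Inhibition scored from the CFP 486 nm/YFP 530 nm FRET ratio 45 min after adding 0.125 microM importin beta to 50 nM Rango biosensor preincubated 5 min with compound (room temperature, PBS with DTT, Tween-20, BSA). No-importin wells as positive control.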
Rango release inh: inhibitors of RanGTP-induced Rango-importin beta complex dissociation; 0.071% of 340,000 active; AID 540253; Biochemical FRET Rango-importin beta, RanGTP-induced dissociation; O95149+P62826; Potency, µM (titrated, usually from 46.1 µM), for the others: top-dose activity change, negative = inhibition; active means falling FRET ratio curve, often poorly fitted, with flat reads before Ran was added; inconclusive means other falling curves, or compound fluorescence or quenching; inactive means flat or rising ratio curve;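 note: potency is the fitted concentration of half-maximal effect; % of control where 0% means no effect; nearly all actives have a fitted effect of over 45% in size; -100% = wells without RanGTP and RCC1; the record marks most hits as doubtful in a second field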
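Quantitative HTS using a FRET biosensor: 0.1 uM Rango, 0.25 uM importin beta, 0.6 uM Ran, 2 mM GTP, 0.2 uM RCC1 final, PBS with DTT, Tween-20 and BSA. Post-read taken 45 min after Ran addition.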
Active calls of the source: *; ? = inconclusive; nt = not tested or not shown; & = joins results of further samples; [ ] = remark or other dose. Not all compounds are listed; the hit share may differ from the screen's.

nr	canonical_smiles	GLA inh pH 4.5	miR-21 reporter	Rango-impB inh	Rango release inh
1	CCn1cc2nc(SCC(=O)Nc3ccc(F)cc3F)n(Cc3ccccc3)c(=O)c2n1	nt	8.6%	2.9%	-8.1%
2	Cc1ccc(NC(=O)CSc2nc3[nH]ncc3c(=O)[nH]2)c(C)c1	-1.6	4.7%	1.3%	21.3%
3	O=C(c1ccc(CSc2ccc(Cl)cc2)cc1)N1CCOCC1	5.7	-15.1%	-4.1%	19.2%
4	CCOc1cc(C=O)ccc1OCCn1c([N+](=O)[O-])cnc1C	nt	0.1%	4.0%	35.3%
5	O=C(COc1ccc(-c2ccccc2)cc1)N/N=C/c1cccnc1	nt	7.8%	-0.1%	3.1%
6	Cc1cc(NCCCN(C)C)n2c(nc3ccccc32)c1C#N	nt	-5.1%	?	-8.5%
7	CC1CCCCN1C(=O)CCc1nnc(Cc2c[nH]c3ccccc23)o1 (configuration not stated)	7.5	-8.0%	-2.2%	38.5%
8	CCCCOC(=O)c1ccccc1N1C(=O)C2C3CCC(C3)C2C1=O (configuration not stated)	4.0	-1.0%	5.9%	-12.8%
9	CCOc1ccc(OCC(=O)Nc2nccs2)cc1	0.0	28.6%	-0.3%	27.4%
10	Cc1cc(CNC(=O)CC2C(=O)NCCN2Cc2ccc(-c3ccccc3)cc2)nn1C (configuration not stated)	3.3	0.1%	1.2%	-0.3%
11	O=C(O)c1ccc(C=NN=Cc2ccco2)cc1	nt	nt	3.7%	3.0%
12	COC(CCN(C)C)(c1ccccc1)c1ccccc1	2.9	-5.9%	-3.5%	-0.9%
13	Cc1ccc[n+](-c2nc([O-])sc2/C=N/Nc2ccc([N+](=O)[O-])cc2)c1	-7.2	3.4%	1.0%	-9.9%
14	COc1ccc(/C=N/NS(=O)(=O)c2ccc(C)cc2)cc1OC(=O)c1ccc(C)cc1	-2.6	-1.3%	1.5%	0.3%
15	CC(NC(=O)c1ccc(Br)o1)C1CC2CCC1C2 (configuration not stated)	nt	-0.7%	3.8%	-8.9%
16	COc1ccccc1OCCNC(=O)CN1C(=O)NC2(CCCCC2)C1=O	nt	nt	1.0%	2.2%
17	Cc1cccc(NC2=CC(=O)CC(C)(C)C2)c1C	4.1	-0.2%	1.1%	-5.3%
18	CCn1c(SCC(=O)Nc2ccccc2C)nc2nc3c(cc2c1=O)COC(C)(C)C3	-5.7	8.9%	0.5%	14.5%
19	Cc1ccc2[nH]c3c(NCc4ccco4)ncnc3c2c1	1.8	-9.8%	-5.2%	-10.9%
20	COc1ccc(C2CCCN2C(=O)c2cccs2)cc1 (configuration not stated)	-12.9	0.6%	0.1%	2.4%
21	CC(=O)NC(Cc1c[nH]c2ccccc12)C(=O)O (configuration not stated)	4.0	-0.1%	0.0%	6.7%
22	CCOc1cc(C2C(C(=O)OC(C)C)=C(C)NC3=C2C(=O)CCC3)cc([N+](=O)[O-])c1O (configuration not stated)	-19.1	-2.4%	-0.3%	?
23	Fc1ccc2c(c1)C1OCCCC1C(c1ccccc1)N2 (configuration not stated)	nt	8.4%	2.3%	22.7%
24	O=C(Oc1cccc2cccnc12)c1cccc(-n2cnnn2)c1	-11.8	-7.7%	-1.2%	-4.1%
25	Cc1cc(C)n2c(-c3ccccc3Cl)nnc2n1	-1.0	-13.4%	-0.6%	-11.4%
26	O=C(CC1SCCNC1=O)Nc1cccc([N+](=O)[O-])c1 (configuration not stated)	-3.7	-6.2%	-0.6%	-24.8%
27	CCOc1ccc(CCNC(=O)CCC(=O)N2CCOc3ccccc32)cc1OCC	nt	-4.6%	1.5%	14.2%
28	CCOc1ccc(-c2c(C(=O)N/N=C/C3CCCCC3)nnn2-c2nonc2N)cc1	nt	-0.1%	-5.9%	-0.1%
29	O=S(Cc1ccccc1)Cc1ccccc1	nt	nt	0.4%	13.0%
30	O=C1CSC(c2ccccc2Br)N1c1ccc(Cl)cn1 (configuration not stated)	-3.9[21.1 µM]	3.1%	-1.3%	-14.8%
31	CC(C)c1ccc(S(=O)(=O)/N=C2\C=C(NS(=O)(=O)c3ccccc3)C(=O)c3ccccc32)cc1	nt	-1.5%	1.3%	9.6%
32	CCN(CC(F)(F)C(F)F)S(=O)(=O)c1ccc(NC(=O)OC)cc1	1.2	1.6%	-1.4%	-11.9%
33	Nc1nc(Nc2ccccc2F)nc(N2CCCC2)c1[N+](=O)[O-]	nt	-33.1%	1.3%	5.0%
34	O=C(C1CCC1)N1CCc2cc(S(=O)(=O)NC3CCCc4ccccc43)ccc21 (configuration not stated)	12.2	-0.5%	-1.3%	10.8%
35	CC(C)(C)c1nc2scc(-c3ccc(Cl)cc3)c2c(=O)o1	-3.7	14.1%	0.4%	17.3%
36	CCC(C(=O)Nc1ccncc1)c1ccccc1 (configuration not stated)	-4.9	13.9%	-1.1%	-7.4%
37	Cc1cc(C)nc(SCCN2CCCCC2)n1	nt	nt	-1.2%	0.3%
38	OCCN1CCN(C(=S)c2ccc(Cl)c(Cl)c2)CC1	2.1	-3.7%	-1.6%	-8.4%
39	COc1ccc(Nc2nc(C(=O)NCc3ccco3)cs2)cc1	-5.4	3.4%	-4.2%	-17.6%
40	O=C(O)C(CCCCN1C(=O)c2ccccc2C1=O)N1C(=O)c2ccccc2C1=O (configuration not stated)	3.6	-6.0%	3.0%	2.6%
41	COc1ccc(OC)c(NC(=O)CCN2CCN(Cc3ccccc3)CC2)c1	8.6	-10.5%	-1.2%	-0.7%
42	CC(Nc1cccc(F)c1)C(=O)Nc1ccc(S(N)(=O)=O)cc1 (configuration not stated)	3.2	-3.1%	1.2%	6.8%
43	CCOc1ccc(OCC(=O)OCC(=O)N2CCN(S(=O)(=O)c3ccc(C)cc3C)CC2)cc1	nt	nt	-4.7%	10.2%
44	Cn1c(NC(=O)c2ccc(S(=O)(=O)N3CCCCC3)cc2)cc(=O)n(C)c1=O	4.2	0.0%	1.1%	3.4%
45	COc1ccc(CCNc2nc(C)cc(=O)[nH]2)cc1OC	nt	nt	-3.3%	0.7%
46	COc1ccc(Br)cc1CN(C)C(=O)C1CC(=O)N(C2CCCC2)C1 (configuration not stated)	nt	nt	-0.5%	6.4%
47	O=C(NCc1ccccn1)C1CCC(=O)N(Cc2ccc(Cl)cc2)C1 (configuration not stated)	nt	-0.2%	0.4%	6.4%
48	C=CC[C@H](CC(=O)OC(C)(C)C)C(=O)OC[C@@H]1CCCN1C(=O)[C@@H](CC=C)CC(=O)N[C@H](CO)Cc1ccccc1	nt	nt	3.0%	15.5%
49	Cc1ccsc1/C=C1/SC(N2CCOCC2)=NC1=O	-8.4	-57.6%	nt	nt
50	C=CCN1c2ccccc2[C@]23C[C@@H](C(=O)OC)N(C(=O)NC4CCCC4)C2=NC(C(=O)OC)=C(C(=O)OC)[C@H]13	nt	nt	1.0%	-2.0%
51	COc1ccc(NS(=O)(=O)c2ccc(N3CCOCC3)c(NC(=O)c3cccc(F)c3)c2)cc1	-6.9	1.4%	-1.2%	0.8%
52	O=C(CN1CCc2ccccc21)NC(=O)NC1CCCCC1	-0.9	-2.4%	-2.5%	-11.4%
53	Cn1c(OCc2cccnc2)nc2c1c(=O)n(Cc1ccccc1)c(=O)n2C	2.2	7.0%	-0.2%	-10.6%
54	CC(C)(C)OC(=O)N[C@@H](Cc1ccccc1)C(=O)N1CCC(C(=O)N[C@@H](Cc2c[nH]c3ccccc23)C(=O)O)CC1	nt	1.9%	0.3%	3.9%
55	COCCCNCCCCSc1ccc(Cl)cc1	6.9	-2.6%	0.2%	10.2%
56	Cc1cc(NC(=O)c2ccc(Br)c(S(=O)(=O)N3CCCC3)c2)no1	-3.1	8.9%	?	-7.9%
57	CC(Sc1nc2c(c(=O)[nH]1)CCCC2)C(=O)Nc1ccccc1C#N (configuration not stated)	nt	-8.5%	-0.9%	-6.3%
58	CSc1cccc(CN2CCCC(CO)(Cc3cccc(Cl)c3)C2)c1 (configuration not stated)	-6.0	-6.1%	-2.9%	-6.9%
59	COc1ccc(NC(C)=[N+](C)CCNS(=O)(=O)c2ccc(Cl)cc2)cc1Cl	nt	-2.3%	-1.7%	-23.1%
60	Cc1ccccc1S(=O)(=O)c1c(C)cc(C)n(C(C)C)c1=O	-7.3	11.9%	-5.4%	0.7%

Entries from the list above with a thiophene ring, fused or not, in the order listed:
nr	canonical_smiles	GLA inh pH 4.5	miR-21 reporter	Rango-impB inh	Rango release inh
20	COc1ccc(C2CCCN2C(=O)c2cccs2)cc1 (configuration not stated)	-12.9	0.6%	0.1%	2.4%
35	CC(C)(C)c1nc2scc(-c3ccc(Cl)cc3)c2c(=O)o1	-3.7	14.1%	0.4%	17.3%
49	Cc1ccsc1/C=C1/SC(N2CCOCC2)=NC1=O	-8.4	-57.6%	nt	nt

Next section
nr	canonical_smiles	GLA inh pH 4.5	miR-21 reporter	Rango-impB inh	Rango release inh
61	COc1ccc(-n2nc(C(=O)NCC(=O)N3CC(C)CC(C)C3)c3ccccc3c2=O)cc1OC (configuration not stated)	nt	10.5%	0.6%	-7.1%
62	CC(C)c1ccc(CCNC(=O)CSC(=S)N2CCCC2)cc1	nt	nt	0.0%	4.1%
63	CCCCN(CCCC)S(=O)(=O)c1ccc(SCC(=O)OCC)c([N+](=O)[O-])c1	-7.5	-0.8%	0.4%	-2.4%
64	CCn1cc(C(=O)O)c(=O)c2cc(F)c(N3CCN(C(=S)NC(=O)c4ccc(OC)cc4)CC3)cc21	nt	3.2%	0.8%	-13.3%
65	CCC(C(=O)NC1CCCC1)N(Cc1ccccc1Cl)C(=O)c1snc(C(N)=O)c1N (configuration not stated)	nt	-0.9%	3.5%	8.9%
66	CC(C)(C)OC(=O)C[C@@H]1C/C=C\C[C@H](CC(=O)N(CCO)Cc2ccccc2)C(=O)N2CCC[C@@H]2COC1=O	nt	nt	-0.1%	-19.2%
67	O=c1[nH][nH]cc1C=Nc1cc(Cl)ccc1O	6.6	9.3%	0.1%	-24.6%
68	COc1ccc(N(CC(=O)N2CCN(c3ccc(F)cc3)CC2)S(=O)(=O)c2c(C)n[nH]c2C)cc1	-6.8	3.5%&10.1%	2.1%	-5.2%
69	CCC(=O)N1N=C(c2ccc(C)o2)CC1c1ccc(Br)cc1 (configuration not stated)	-0.1	-27.3%	-0.6%	1.2%
70	Cc1noc(NS(=O)(=O)c2ccc(N3CC(O)=C(c4ccccc4)C3=N)cc2)c1C	4.2	2.6%	-2.9%	-10.5%
71	Cc1ccc(-c2cc(C(=O)N3CCN(C(=O)c4ccco4)CC3)[nH]n2)c(C)c1	nt	-6.1%	-0.6%	4.4%
72	Cc1ccc(C(c2c(C)n(C)n(-c3ccccc3)c2=O)c2c(C)n(C)n(-c3ccccc3)c2=O)s1	3.1	?	0.6%	28.9%
73	O=C(COc1ccc(Cl)cc1Br)Nc1ccncc1	nt	-22.0%	0.8%	21.3%
74	CC(C)C(C(=O)C=[N+]=[N-])N1C(=O)c2ccccc2C1=O (configuration not stated)	-5.1	0.5%	2.1%	-2.1%
75	Cn1ccsc1=NC(=O)c1ccccc1OC(F)F	nt	-4.3%	-2.5%	-1.3%
76	O=C(Nc1nc(-c2ccc(F)cc2)cs1)C1CCCO1 (configuration not stated)	3.7	-40.3%	-1.9%	-5.3%
77	COc1ccc(C2=NOC(C(=O)Nc3cc(Br)ccc3O)C2)cc1OC (configuration not stated)	-6.7	-2.0%	0.8%	-1.8%
78	O=C(Nc1ccon1)c1csc2ccccc12	-2.5	-10.8%	-1.0%	0.3%
79	CN1CCN(C(=O)c2ccc(CS(=O)(=O)c3c(Cl)cccc3Cl)o2)CC1	1.0	-0.5%	-1.3%	?
80	Cn1c(SCC(=O)NCc2ccccc2)nc2ccccc21	-8.3	-8.3%	-0.4%	4.1%
81	Cc1ccc(S(=O)(=O)N2CCC(N3CCCCCC3)CC2)cc1	3.0	-5.7%	-1.7%	4.3%
82	CCN(CC(=O)Nc1cc(Cl)ccc1C)c1ncnc2sc(C)c(C)c12	5.7	0.5%	0.0%	-6.4%
83	O=C(CSc1n[nH]c(-c2cccs2)n1)N1CCCc2ccccc21	5.7	-11.2%	0.3%	2.4%

Screening results from PubChem.
